Bioassay records: PubChem, National Center for Advancing Translational Sciences (NCATS)
PINK1 modulator: modulators of PINK1 expression; 0.2% of 410,000 active; PINK1 immunofluorescence, high-content cytometry, 24 h; Potency, µM (titrated, usually from 76.6 µM), inactives show at the top dose activation (PINK1 increase), usual class: activators; active = well fitted activation curve with a large enough effect; inconclusive = small, poorly fitted or top-dose-only effect; inactive = flat fitted curve, though single readings scatter; cell line not stated here;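 also: potency is read from the fitted curve at half-maximal effect; % of control where 0% means no effect; nearly all actives have a fitted effect of over 65% in size; a mitochondrial uncoupler was the plate control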
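Stable cell line, 250 cells/well, 12 h attachment; compounds pinned at 5 concentrations, 24 h; CCCP control. Fixed with nuclear dye, primary antibodies 12 h at 10 degrees C, secondary plus cell stain; laser-scanning cytometer read.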
D2 ag: agonists of human D2 dopamine receptor (beta-arrestin); 0.084% of 360,000 active; DiscoveRx PathHunter D2 beta-arrestin, luminescence, 90 min; 100% = 57 uM dopamine signal; activation, % (no concentration beside the values); P14416; in the data active = activation above about 40%; inconclusive = about 15% to 40%; inactive = below about 15%; also: compound concentration not given in the record; the text of the record calls up to 30% inactive
Target sequence (P14416 whole entry, looked up): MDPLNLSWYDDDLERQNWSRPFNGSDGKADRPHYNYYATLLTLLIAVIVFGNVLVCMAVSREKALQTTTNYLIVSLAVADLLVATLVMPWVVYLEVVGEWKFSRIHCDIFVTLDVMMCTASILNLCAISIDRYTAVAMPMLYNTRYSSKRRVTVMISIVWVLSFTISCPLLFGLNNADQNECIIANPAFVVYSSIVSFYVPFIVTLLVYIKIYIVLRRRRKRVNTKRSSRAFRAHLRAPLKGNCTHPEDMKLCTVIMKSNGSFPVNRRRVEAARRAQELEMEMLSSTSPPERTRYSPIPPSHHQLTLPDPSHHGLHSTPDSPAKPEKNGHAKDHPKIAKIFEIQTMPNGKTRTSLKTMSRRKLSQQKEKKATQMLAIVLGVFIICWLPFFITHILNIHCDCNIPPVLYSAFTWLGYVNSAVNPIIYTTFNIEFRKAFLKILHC
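DiscoveRx PathHunter D2 beta-arrestin cells (2,100/well) attached overnight, then compound-stimulated 90 min at 37 C in HBSS/10 mM HEPES/0.1% Tween-20 buffer; beta-galactosidase complementation read by luminescence after 1 h at ambient temperature. Dopamine 57 uM final (EC100) as control.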
Six1-Eya2 inh: Six1/Eya2 interaction inhibition. 0.56% of 360,000 active. AlphaScreen GST-Six1/His-Eya2 binding, biochemical; stronger effect = lower value; control for the full effect not named in the record. AID 651725. activity change, % (concentration not given with the values); in the data active = activity change below about -65%; inconclusive = about -30% to -65%; inactive = above about -30%; also: % is scaled to controls: 0 for no effect and ±100 for the full control effect
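GST-Six1 + His-Eya2 (5X stock: 250/500 nM); Tris pH 8.0, 300 mM NaCl, 0.05% BSA, 0.02% Tween 20; GSH donor/Ni acceptor beads; 1 h 37 °C dark; AlphaScreen readout.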
CtBP-E1A inh: blocks the CtBP interaction with E1A; 0.49% of 340,000 active; activity change, % (no concentration beside the values); AID 651724; AlphaScreen GST-E1A/His-CtBP binding, 1536-well; stronger effect = lower value; control for the full effect not named in the record; in the data active means activity change below about -65%; inconclusive means about -30% to -65%; inactive means above about -30%; also: % is scaled to controls: 0 for no effect and ±100 for the full control effect; compound concentration not given in the record
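Protein mix (5X: 125 nM each GST-E1A, His-CtBP) was incubated with pinned compound 2 h at 37 deg C in dark, in 50 mM Tris pH 8.0 buffer with 300 mM NaCl. Glutathione donor and nickel acceptor beads followed; AlphaScreen signal read after 1 h.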
TRPML1 inh: inhibitors of human TRPML1 channel. Q9GZU1. TRPML1-inducible cells, Ca2+ dye fluorescence, FDSS; stronger effect = lower value; inhibition of EC80 agonist-evoked calcium signal. activity change, negative = inhibition, % (no concentration beside the values). 0.02% of 390,000 active. AID 624415; in the data active means activity change below about -50%; inconclusive means about -30% to -50%; inactive means above about -30%;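 also: stimulus is agonist 54-4 at its EC80 concentration; % is scaled to controls: 0 for no effect and ±100 for the full control effect; compound concentration not given in the record; the text of the record puts the active cut at -80%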
Target sequence (Q9GZU1 whole entry, looked up): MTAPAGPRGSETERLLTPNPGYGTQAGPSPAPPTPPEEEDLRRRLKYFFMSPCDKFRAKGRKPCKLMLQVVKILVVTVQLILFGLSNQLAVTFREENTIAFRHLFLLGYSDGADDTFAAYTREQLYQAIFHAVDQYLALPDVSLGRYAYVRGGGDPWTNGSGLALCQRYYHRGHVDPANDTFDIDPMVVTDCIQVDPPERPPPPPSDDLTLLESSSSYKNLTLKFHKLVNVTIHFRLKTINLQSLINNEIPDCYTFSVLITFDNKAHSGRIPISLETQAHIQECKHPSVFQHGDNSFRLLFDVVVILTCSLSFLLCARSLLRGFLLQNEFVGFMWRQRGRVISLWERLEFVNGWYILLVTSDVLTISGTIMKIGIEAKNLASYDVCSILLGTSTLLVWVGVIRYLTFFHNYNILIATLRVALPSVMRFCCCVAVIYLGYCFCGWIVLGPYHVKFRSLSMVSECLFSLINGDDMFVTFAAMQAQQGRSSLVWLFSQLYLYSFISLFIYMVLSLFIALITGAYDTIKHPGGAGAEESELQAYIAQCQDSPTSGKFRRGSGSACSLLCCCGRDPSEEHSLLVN
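Tet-induced TRPML1-DL cells loaded with Ca8 no-wash calcium dye were read kinetically on FDSS. Compound addition was followed by EC80 agonist 54-4 (4 uM final); inhibition was read over 110 s.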
TRPML1 ag: agonists of human TRPML1 channel; TRPML1-expressing cells, Ca2+ dye fluorescence, FDSS; host cell line not named in the record; reference of the full effect not given here; activation, % (no concentration beside the values); 0.12% of 410,000 active; in the data active = activation above about 50%; inconclusive = about 30% to 50%; inactive = below about 30%; also: 0% is about no effect; the text of the record puts the active cut at 80%
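Cells: TRPML1-DL, 1X Tet inducer, ~16 h at 37 degrees C/5% CO2. Dye: ABD Ca8 no-wash + quencher, 45-90 min RT. Read: 10 s baseline, compound add, 110 s agonist phase; 54-4 EC80 (4uM final), 110 s antagonist phase.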
* hit, by the source's call; ? = inconclusive; / = not tested or not shown; [ ] = remark or other dose.

Screens in order – PINK1 modulator	D2 ag	Six1-Eya2 inh	CtBP-E1A inh	TRPML1 inh	TRPML1 ag
> O=C(O)c1ccccc1C(=O)OCCCCOC(=O)c1ccccc1C(=O)O
  -3.7%[38.3 µM]	-1.2	1	4	6	-0.1
> COc1ccc(Nc2nc(C(C)(C)C)nc3c2nnn3Cc2ccccc2Cl)cc1OC
  4.4%	-2.5	5	-6	7	1.2
> C=CCNC(=O)CCCOc1cccc(C)c1
  ?	-2.5	5	9	-3	-0.1
> CC1(C(=O)NCC2CC2)Cc2c(-c3cccc(C(N)=O)c3)ccnc2O1 (stereo not drawn)
  11%	-1.6	1	5	/	-0.2
> COC(=O)Oc1ccc(/C=N/NC(=O)CSCc2ccc(Cl)cc2)cc1OC
  1.5%	6.2	-2	/	10	1.8
> O=C(Nc1ccccc1)c1snc2c(=O)[nH]cnc12
  -2.5%	-3.2	?	?	17	2.3
> CC(C)(C)NC(=O)NC(=O)COC(=O)Cc1coc2ccc3ccccc3c12
  7.5%	8.1	-10	5	-13	1.5
> Cc1cc(C)c2c(CC(=O)N(Cc3ccc(Cl)cc3)Cc3ccco3)coc2c1
  5.8%	/	/	/	8	5.1
> CCOC(=O)c1ccccc1NC(=O)CN1CCC(n2nnc3cc(F)ccc32)CC1
  5.2%	-0.9	0	1	-5	2.7
> COc1ccc(NC(=O)N2C3CCCC2CC(NC(=O)c2ccccc2)C3)cc1 (stereo not drawn)
  2.9%	7.2	3	1	1	-0.5
> CCCN(C(=O)Cc1nc(N)n[nH]1)C1(C(=O)Nc2c(C)cccc2C)CCCCC1
  -1.3%	-2.4	21	3	-4	-1.2
> CC(C)S(=O)(=O)c1nsc2nc(=O)c(/C=C3\C=Nc4ccccc43)c(N)n12
  1.7%	-6.6	0	/	3	1.6
> Cc1ccccc1C(=O)N1CCC(c2nc3ccccc3s2)CC1
  3.2%	/	/	/	-11	-0.8
> CCC(=NC1CC(C)(C)NC(C)(C)C1)C1=C(O)CC(C)(C)CC1=O
  -0.7%	0.8	12	6	3	0.3
> NC(=O)C(Cc1ccccc1)NC(=O)C12CC3CC(CC(C3)C1)C2 (stereo not drawn)
  -0.1%	-2.8	-4	-2	-8	-0.2
> CC(=O)Nc1ccc(S(=O)(=O)Nc2nc3nc(-c4ccccc4)cc(-c4ccccc4)n3n2)cc1
  1.2%	0.3	-6	/	14	-0.4
> CCn1cc(C(=O)NCc2ccc3c(c2)OCO3)c(=O)c2cc(S(=O)(=O)N3CCOCC3)ccc21
  /	-4.1	-11	-7	-13	-0.3
> C/C(=N\NC(=O)c1nn(C)cc1Br)c1cccc(NC(=O)C(C)(C)C)c1
  -1.0%	-1.3	1	5	-2	-0.1
> N=C1C(=O)OCC1c1ccccc1NC(=O)Nc1ccccc1 (stereo not drawn)
  -1.2%	-1.8	6	/	0	3.5
> Cc1ccc(-c2cc(C(=O)NCc3cccs3)no2)cc1
  4.4%[38.3 µM]	-1.4	6	-14	-22	1.1
> CCCCn1cnc2c(cnn2-c2ccc(Cl)cc2)c1=O
  -0.3%	-3.1	4	9	1	-1.2
> COc1ccc(OCC(=O)N2c3ccccc3CCc3ccccc32)cc1
  0.9%	1.1	6	11	4	0.3
> CCc1nnc(NC(=O)CSc2nnc(CNC(=O)c3ccccc3)o2)s1
  0.0%	-0.4	-13	?	42	-0.3
> COC(=O)c1ccccc1NC(=O)Cn1cc2c(n1)CCC(C)C2 (stereo not drawn)
  2.8%	-5.5	-4	4	7	0.3
> CC(=O)c1ccc(S(=O)(=O)Nc2cccc(-c3ccc(N4CCCC4)nn3)c2)cc1
  0.5%	/	/	/	?	-1.5
> COc1ccc(NC(=O)c2nc3ccccc3s2)cc1
  1.7%	0.7	1	0	-3	1.3
> COC(=O)C=C1CCC2C3CCC4=CC(=O)C(Br)CC4(C)C3C(=O)CC12C (stereo not drawn)
  3.8%	-2.7	-3	2	-10	-0.2
> Cc1ccc2nc(NC(=O)c3cccc(-c4cc5ccccc5oc4=O)c3)sc2c1
  5.1%[38.3 µM]	-0.7	-8	-7	-7	-0.4
> Cc1ccc(NC(=O)CCCCCCCCCCC2COCCO2)c(C)c1 (stereo not drawn)
  10%	-3.8	4	13	-2	1.0
> Cc1cc(C)c2c(c1)/C(=N/Nc1ccc(S(N)(=O)=O)cc1[N+](=O)[O-])CCC2
  3.8%	1.7	-4	/	1	0.0
> CC(C)C1C(=O)Nc2ccc(S(=O)(=O)NCCc3ccc(Cl)cc3)cc21 (stereo not drawn)
  -2.0%	/	/	/	2	-0.1
> Cc1cccc(Cn2c(SCc3ccc(C(=O)NCc4ccccc4F)cc3)nc3ccncc32)c1
  0.8%	/	/	/	15	0.4
> O=C(O)C/C(=C\c1ccc(N2CCOCC2)c([N+](=O)[O-])c1)c1nc2ccccc2s1
  1.0%	-5.7	-17	-9	/	/
> CCN(c1ccc(NS(=O)(=O)c2cc(Cl)ccc2Cl)cc1)C(C)C
  ?	5.9	-27	?	17	0.8
> COC(=O)c1ccc(NC(=O)CN2C(=O)c3ccccc3S2(=O)=O)cc1
  0.9%	2.0	-2	7	7	0.2
> CCc1ccc(CNCc2cccnc2)cc1
  -1.1%	-0.5	0	2	-1	-0.3
> CCc1c(O)nc(SCC(=O)Nc2ccccc2OC)[nH]c1=O
  1.3%[38.3 µM]	-0.5	3	-2	3	0.2
> CCc1ccc(-n2nc3ccc(NC(=O)c4ccc5c(c4)OCO5)cc3n2)cc1
  8.6%	-2.6	5	5	-4	-1.1
> O=C(CSc1nncn1-c1ccccc1)Nc1ccccc1F
  0.8%	-3.3	1	-6	3	0.0
> CCc1ccc(S(=O)(=O)c2nnn3c2nc(N2CCN(CC)CC2)c2sccc23)cc1
  3.9%	/	/	/	-3	-0.6
> COc1ccc(-n2nc(C(=O)N3CCC(C#N)CC3)c3c4ccccc4n(C)c3c2=O)cc1
  -0.9%	-5.3	4	-13	2	-0.2
> COc1ccc(CN2C(=O)C(CC(=O)NC(c3ccccc3)c3ccccc3)CC(C(=O)N(C(C)C)C(C)C)=C2C)cc1 (stereo not drawn)
  2.4%	1.1	-3	-6	20	0.7
> CCc1noc(C)c1C(=O)N(C)CC(=O)Nc1ccccc1Br
  1.3%	-2.1	4	-1	-5	-0.5
> Cc1cccc(NC(=S)N(CCN2CCOCC2)Cc2ccccc2F)c1
  0.0%	-2.4	2	1	-5	1.9
> Cc1ccc(S(=O)(=O)N2CCN(C)CC2)cc1
  0.9%	-0.6	2	/	/	/
> CC(C)N=c1scc(-c2ccco2)n1/N=C/c1ccc(O)c(O)c1
  -1.7%	9.4	?	?	33	3.4
> CCc1ccc(OCCCC(=O)Nc2nccs2)cc1
  6.7%	-4.7	7	3	-10	-0.8
> CC/C(CC(=O)C(F)(F)F)=N\NC(=O)/C(C#N)=C/N(C)C
  0.7%	-3.6	-1	2	1	5.3
> COC(=O)N/N=C(\C)c1ccccc1OC(F)F
  10%	-0.8	1	-3	1	0.8
> O=C(NC1CCCc2ccccc21)C1CCN(c2c3c(nc4ncnn24)CCC3)CC1 (stereo not drawn)
  -1.8%[38.3 µM]	-2.6	2	10	25	1.4

Four compounds out of the list above, sorted by their value in TRPML1 inh, smallest number first.
| Compound | PINK1 modulator | D2 ag | Six1-Eya2 inh | CtBP-E1A inh | TRPML1 inh |
| --- | --- | --- | --- | --- | --- |
| CCc1noc(C)c1C(=O)N(C)CC(=O)Nc1ccccc1Br | 1.3% | -2.1 | 4 | -1 | -5 |
| CC/C(CC(=O)C(F)(F)F)=N\NC(=O)/C(C#N)=C/N(C)C | 0.7% | -3.6 | -1 | 2 | 1 |
| COc1ccc(-n2nc(C(=O)N3CCC(C#N)CC3)c3c4ccccc4n(C)c3c2=O)cc1 | -0.9% | -5.3 | 4 | -13 | 2 |
| COc1ccc(CN2C(=O)C(CC(=O)NC(c3ccccc3)c3ccccc3)CC(C(=O)N(C(C)C)C(C)C)=C2C)cc1 (stereo not drawn) | 2.4% | 1.1 | -3 | -6 | 20 |

More compounds follow:
Screens in order – PINK1 modulator	D2 ag	Six1-Eya2 inh	CtBP-E1A inh	TRPML1 inh	TRPML1 ag
> O=C(CCN1C(=O)C2C3C=CC(C3)C2C1=O)NCC1CCCO1 (stereo not drawn)
  2.5%	-2.0	-3	5	-11	-0.2
> C/C(CC1CC(C)(C)OC1=O)=N/Nc1nc(-c2ccccc2)cs1 (stereo not drawn)
  5.7%	5.4	-13	0	-5	0.8
> Cc1ccc(C(=O)NCCNC(=O)c2ccc(F)cc2)cn1
  0.2%	-2.7	-3	6	24	9.2
> c1ccc(Sc2nc(N3CCCCC3)nc(N3CCCCC3)n2)nc1
  1.6%	-1.3	-1	8	23	8.8
> O=C(CC1CCCC1)N1CCN(S(=O)(=O)c2c(F)cccc2F)CC1
  -0.6%	-2.8	-1	5	5	-0.8
> CCC(CC)C(=O)Nc1nnc(S(=O)(=O)Nc2ccccc2C)s1
  2.6%	-1.9	-2	/	-4	-0.5
> CCCn1c(-c2cccs2)nc2nc3ccccc3nc21
  0.3%	-4.7	3	0	3	1.3
> COc1cc(Cl)ccc1OCc1cc(C(=O)N(C)C2CCOC2)no1 (stereo not drawn)
  0.8%	4.9	-1	3	6	0.5
> CCOC(=O)C1=C(C)N(CCCC(=O)O)C(=O)NC1c1ccc2ccccc2c1 (stereo not drawn)
  2.0%	-3.4	1	3	-9	-0.6
> CCCOC(=O)c1ccc(NC(=O)CC(C)(C)C)cc1
  7.6%	2.8	39	/	-4	0.6
> Cn1cc(C(=O)N2CCN(c3ccccn3)CC2)c(=O)c2cc(S(=O)(=O)N3CCOCC3)ccc21
  -0.9%	-0.1	5	-2	11	-0.6
> CCCS(=O)(=O)N1CCCC(C(=O)NCCN(CC)CC)C1 (stereo not drawn)
  -0.9%	-4.0	12	2	53	-0.3
> Fc1ccc(-c2cn3cc(Cc4ccccc4Cl)sc3n2)cc1
  3.0%	/	/	/	-3	3.8
> CC(C)C(=O)N1CCC1(C)C(=O)Nc1nc2ccccc2[nH]1 (stereo not drawn)
  3.2%	-3.2	15	24	28	-0.6
> COc1cc(NC(=O)CSc2nc3ncnc(N)c3[nH]2)c(C(=O)O)cc1OC
  -0.7%	-5.1	28	-1	-11	0.7
> CCOc1ccc(C(C(=O)NCC2CCCO2)N(C(=O)c2snc(C(N)=O)c2N)c2ccc3c(c2)OCCO3)cc1 (stereo not drawn)
  -1.9%	0.0	-2	3	-7	0.9
> Cc1ccc(NC(=O)CSC2=C(C#N)C(c3ccco3)C3=C(CCCC3=O)N2)cc1 (stereo not drawn)
  -2.1%	-1.9	-10	-3	9	1.7
> Cc1ccccc1C(=O)NCCn1cc(SCC(=O)NCC2CCCO2)c2ccccc21 (stereo not drawn)
  -0.3%	-2.3	1	3	-2	0.1
> S=c1nc[nH]c2c1[nH]c1ccc(Cl)cc12
  -0.1%	1.8	3	0	3	0.1
> COc1ccc(C(=O)NC(=S)NCC2CCCO2)cc1 (stereo not drawn)
  -2.3%	-4.9	-2	-2	10	-1.4
